# GIV Gai3 FP = inhibitors of GIV peptide binding to Galpha-i3, primary screen, biochemical, fluorescence polarization, FITC-GIV GBA peptide, rat Galphai3; percent of control (FP), % (no concentration beside the values); 90 min; hits give low values; scaled: aluminum fluoride 0%, vehicle 100%; actives 0.42% (n = 210,000); Guanine nucleotide-binding protein G(i) subunit alpha-3 (Rattus norvegicus), P08753; AID 1224905, 2016;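 active = replicate mean at 85% of control or lower, very high polarization wells dropped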;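 also: wells of about 15 µL received 100 nL stock; the first replicate is given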
# Target sequence (P08753 whole entry, looked up): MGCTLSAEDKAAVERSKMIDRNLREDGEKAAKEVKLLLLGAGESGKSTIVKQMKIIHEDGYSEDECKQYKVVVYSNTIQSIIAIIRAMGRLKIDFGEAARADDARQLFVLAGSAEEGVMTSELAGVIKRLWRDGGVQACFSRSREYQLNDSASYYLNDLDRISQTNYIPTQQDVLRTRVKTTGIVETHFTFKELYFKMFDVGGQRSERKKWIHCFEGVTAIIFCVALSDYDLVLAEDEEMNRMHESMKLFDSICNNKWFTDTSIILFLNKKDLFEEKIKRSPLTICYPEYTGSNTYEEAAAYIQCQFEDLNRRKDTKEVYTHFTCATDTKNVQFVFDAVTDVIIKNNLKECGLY
# Sa growth 42C = S. aureus growth inhibition at 42 and 30 °C, primary screen, LtaS inhibitor project, RN4220, two temperatures. relative growth, % (test concentration not listed). actives 0.53% (n = 170,000). OD600, 20 h, 42 °C; hits give low values;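 active = growth at 42 °C up to 50% and 20 or more points under that at 30 °C, or under 10% at both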;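 also: 300 nL library stock went into each well; scaled to the means of positive and negative controls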
# HCMV NEC inh = inhibitors of HCMV UL50-UL53 interaction, biochemical, HTRF; HCMV UL50-UL53 nuclear egress complex (human cytomegalovirus); normalized percent inhibition; inhibition, % (test concentration not listed); actives 0.15% (n = 190,000);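 active = both replicates at 50% or more, plus weaker picks with an unusually low signal ratio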;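 also: stock transfer was 100 nL into about 20 µL; 0% = negative control wells and 100% = wells with untagged competitor protein; inactives centre near -12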
# Sa growth 42C second temp = recorded beside Sa growth 42C, whose call it bears; relative growth, %; measured here: growth at 30 °C;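 optical density after 20 h as mean of two plates; 100% = untreated growth and lower means inhibition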
# * marks the source's active call; other numbers are inactive results; / = no result given; & = joins results of further samples. Hits appear at their usual frequency; any-hit rate near 0.85%.
# Sequence of screens – GIV Gai3 FP	Sa growth 42C	Sa growth 42C second temp	HCMV NEC inh
> CCC(=O)N1CCc2cc(S(=O)(=O)NC(CC(C)C)C(=O)N3CCC(C)CC3)ccc21 (stereo not given)
  102&98	92	80	-26
> O=C(NCc1cc(F)cc2c1OCOC2)c1ccno1
  112	98	97	13
> O=C(CN1CCN(c2ccccc2Cl)CC1)N1CCc2ccccc21
  /	94	86	-11
> O=C(NCCN1CCOCC1)Nc1c[nH]c2ccccc12
  105	3.2*	6.3*	-122
> CCC(C)(C)NC(=O)c1ccc2c(c1)N(CC#N)C(=O)C(C)(C)O2
  102	104	76	-1
> CCOc1ccc(N(CC)S(=O)(=O)N2CCCC(C(=O)Nc3ccc(NC(C)=O)cc3)C2)cc1 (stereo not given)
  106	93	90	/
> COc1ccc(C(=O)OCC(=O)N2c3ccccc3CC2C)cc1 (stereo not given)
  /	100	91	-6
> COc1ccccc1NC(=O)Cc1coc2c(C)c(C)ccc12
  108	107	95	/
> Cc1noc(C)c1CCC(=O)Nc1ccc(-c2cc3ccccc3o2)cc1
  /	109	83	-24
> Cc1ccc(Cl)cc1NC(=O)CCCn1nc(C)c2nn(-c3ccccc3)c(-n3cccc3)c2c1=O
  101	/	/	-29
> COc1ccc2nc(SCC(=O)c3ccc4c(c3)OCO4)[nH]c2c1
  102	89	72	-2
> CCCc1nn2cc(CC(=O)NN)nc2s1
  112	100	103	5
> Cc1ccc(N=Cc2ccc(Cl)cc2)cc1C
  104	97	84	-11
> CN1CC(c2ccccc2)Oc2ccccc2C1=O (stereo not given)
  98	116	100	-2
> COc1cc2c(cc1OC)n(CC(=O)NC1CCCCCC1)n1c(C)cc(=O)nc21
  101	88	91	7
> O=C(CSC(=S)N1CCCCC1)N1c2ccccc2CCc2ccccc21
  106	82	103	/
> c1ccc(Cn2c(C3CC3)nc3ccccc32)cc1
  /	104	93	-12
> CCOC(=O)c1ccc(Nc2nn3c(=O)c4ccccc4nc3s2)cc1
  103	114	88	/
> C=Cc1ccc(Cn2nc3n(CCC(C)C)c(=O)c4ccc(C(=O)NC5CCCC5)cc4n3c2=O)cc1
  111	/	/	-14
> CC1(C)CC(=O)C(=Cc2cn(CCC#N)nc2-c2ccc(F)cc2)C(=O)C1
  /	85	100	23
> O=C(CCNS(=O)(=O)c1ccccc1)N1CCCC1
  106	106	99	15
> CCCCc1ccc(NC(=O)C(C)CC)cc1 (stereo not given)
  /	112	93	-6
> Cc1cc2[nH]c(=O)[nH]c2cc1NS(=O)(=O)c1c(C)c(C)cc(C)c1C
  102	/	/	-29
> CC1(C)CC(N2N=C(N)CC2=O)CCO1 (stereo not given)
  100	96	111	-1
> CC(=O)Nc1ccc2c(c1)OCO2
  /	138	92	-15
> COc1ccc2cc3n(c2c1)CC(C)(C(=O)NC1CCCCC1)N(C(C)C)C3=O (stereo not given)
  100	/	/	0
> Cc1cc(C)c2c(N)c(C#N)sc2n1
  102	89	74	-116
> O=C(C1CCN(S(=O)(=O)c2ccc3c(c2)OCCO3)CC1)N1CCN(c2nc3ccccc3s2)CC1
  118	109	89	6
> CCn1c(N)c(C(=O)COC(=O)CCc2nc3ccccc3c(=O)[nH]2)c(=O)[nH]c1=O
  /	83	94	-9
> O=C(NC12CC3CC(CC(C3)C1)C2)c1cccnc1Cl
  100	90	85	-36
> COc1ccc(N2CCN(C(=O)c3ccc(=O)[nH]c3)CC2)cc1
  /	91	96	2
> CCOCCCNC(=O)c1ccc(-n2c(-c3ccccc3)cc3c2CCCCC3)cc1
  99	78	88	5
> Cc1cccc(NC(=O)C2CCCN2S(=O)(=O)c2ccc3c(c2)NC(=O)CO3)c1C (stereo not given)
  106	/	/	-2
> COc1ccccc1N=c1sc(C2=c3ccccc3=NC2=O)c(O)n1-c1ccccc1OC
  107	/	/	-14
> Cc1cc(C)c2c(-n3cccc3)nn(Cc3ccc(C(=O)NC4CC4)cc3)c2n1
  103&108	99	91	-20&-20
> CCOCCc1nn2c(=O)cc(COC(=O)c3ccccc3NC(=O)C3CCCCC3)nc2s1
  100	90	87	/
> COc1ccc(OC)c(NC(=O)Cn2ncc3c2-c2ccccc2OC3)c1
  102	110	82	-14
> COc1cccc(-n2cc(C(=O)N3CC=C(c4ccccc4)CC3)c3ccccc3c2=O)c1
  106	114	68	/
> COc1ccc(NC(=S)NCCc2c[nH]c3ccccc23)c(OC)c1
  97	108	61	/
> O=C(CCSCCc1ccccn1)Nc1cc(-c2cccc(Cl)c2)no1
  105	84	70	-22
> Cc1nc(NCCc2ccccc2)cc(-c2ccccc2)n1
  102	/	/	1
> CC1CCCCN1C(=O)CSc1nc(-c2ccccc2)no1 (stereo not given)
  109	87	68	/
> CCCCn1c2ccccc2n2cc(-c3ccc4c(c3)OCO4)nc12
  104&100	102	80	-9
> CCCCCn1c(=O)[nH]c2cc(C(=O)NCCCN3CCN(C)CC3)ccc2c1=O
  102	/	/	-8
> Cc1ccc(/C=C/C2=NC(=C\c3ccc(C)o3)/C(=O)O2)cc1
  108	107	80	-36
> COc1cc(-c2nc3ccccc3c(=O)n2NC(=O)/C=C/c2ccccc2Cl)cc(OC)c1OC
  97	/	/	-20
> CC(Oc1ccc(C#N)cc1)C(=O)Nc1cc(Cl)ccc1-n1cncn1 (stereo not given)
  /	100	99	10
> O=c1[nH]c(-c2cccc(O)c2)nc2c1Cc1ccccc1O2
  105&99	116	93	-2&-21
> CCc1nn2c(=O)cc(CN(C)c3cccc(C)c3)nc2s1
  109	/	/	3
> COc1cc2nc(SCC(=O)Nc3cccc(C)c3)n3nc(-c4ccccc4)nc3c2cc1OC
  99	99	94	-2
> COc1ccccc1/C=C1/SC(=S)N(CN2CCCCC2)C1=O
  103	/	/	-30
> O=C(Nc1cccnc1)C1CC(c2ccccc2O)=NO1 (stereo not given)
  102	108	75	0
> Cc1ccc(C(=O)Sc2ncc(C(F)(F)F)cc2Cl)cc1
  100	76	81	-24
> COc1ccc(Cl)cc1-n1cc(-c2ccccc2)nc1SCC(=O)Nc1ccc(C)cc1
  104	125	94	/
> Cc1noc(-c2cc(S(=O)(=O)N3CCCC3)c(C)s2)c1C
  106	/	/	-12
> CCOC(=O)CCc1c(C)nc2c(C(=O)Nc3ccc(Cl)cc3)c[nH]n2c1=O
  103	/	/	-9
> COc1cccc(N2CCN(C(=O)c3cnc(SC)nc3C)CC2)c1
  114	104	93	-17
> Cc1nnc2c3ccccc3nc(Nc3cccc(O)c3)n12
  104	94	87	/
> CCN(CC)S(=O)(=O)c1ccc(-c2cc(C(=O)OC)sc2C(F)(F)F)cc1
  104	95	84	-28
> O=C(N/C(=C/c1ccccc1)C(=O)N1CCCCCC1)c1ccccc1
  110	66	83	/

# Part of the list above, with bars between the fields.
molecule | GIV Gai3 FP | Sa growth 42C | Sa growth 42C second temp | HCMV NEC inh
Cc1ccc(/C=C/C2=NC(=C\c3ccc(C)o3)/C(=O)O2)cc1 | 108 | 107 | 80 | -36
COc1cc(-c2nc3ccccc3c(=O)n2NC(=O)/C=C/c2ccccc2Cl)cc(OC)c1OC | 97 | / | / | -20
CC(Oc1ccc(C#N)cc1)C(=O)Nc1cc(Cl)ccc1-n1cncn1 (stereo not given) | / | 100 | 99 | 10
O=c1[nH]c(-c2cccc(O)c2)nc2c1Cc1ccccc1O2 | 105&99 | 116 | 93 | -2&-21
CCc1nn2c(=O)cc(CN(C)c3cccc(C)c3)nc2s1 | 109 | / | / | 3
COc1cc2nc(SCC(=O)Nc3cccc(C)c3)n3nc(-c4ccccc4)nc3c2cc1OC | 99 | 99 | 94 | -2
COc1ccccc1/C=C1/SC(=S)N(CN2CCCCC2)C1=O | 103 | / | / | -30
O=C(Nc1cccnc1)C1CC(c2ccccc2O)=NO1 (stereo not given) | 102 | 108 | 75 | 0
Cc1ccc(C(=O)Sc2ncc(C(F)(F)F)cc2Cl)cc1 | 100 | 76 | 81 | -24
COc1ccc(Cl)cc1-n1cc(-c2ccccc2)nc1SCC(=O)Nc1ccc(C)cc1 | 104 | 125 | 94 | /
Cc1noc(-c2cc(S(=O)(=O)N3CCCC3)c(C)s2)c1C | 106 | / | / | -12
CCOC(=O)CCc1c(C)nc2c(C(=O)Nc3ccc(Cl)cc3)c[nH]n2c1=O | 103 | / | / | -9
COc1cccc(N2CCN(C(=O)c3cnc(SC)nc3C)CC2)c1 | 114 | 104 | 93 | -17
Cc1nnc2c3ccccc3nc(Nc3cccc(O)c3)n12 | 104 | 94 | 87 | /
CCN(CC)S(=O)(=O)c1ccc(-c2cc(C(=O)OC)sc2C(F)(F)F)cc1 | 104 | 95 | 84 | -28
O=C(N/C(=C/c1ccccc1)C(=O)N1CCCCCC1)c1ccccc1 | 110 | 66 | 83 | /

# The listing continues.
# Sequence of screens – GIV Gai3 FP	Sa growth 42C	Sa growth 42C second temp	HCMV NEC inh
> COc1cc(NC(=O)CCCn2nc(C)c3nn(-c4ccccc4)c(-n4cccc4)c3c2=O)cc(OC)c1
  100	/	/	-28
> CNC(=O)COC(=O)c1ccc2c(c1)NC(=O)C1CCCN21 (stereo not given)
  /	69	69	-24
> Cc1ccc(C(=O)NCC2CCCO2)cc1 (stereo not given)
  106	114	100	-12
> O=C(c1ccccc1F)N(Cc1ccccc1)C1C=CS(=O)(=O)C1 (stereo not given)
  /	90	97	8
> CCOC(=O)C1CCN(C(C)=C2C(=O)c3ccccc3C2=O)CC1
  105	63	87	/
> FC(F)(F)c1cc(Oc2ccc(-n3cccc3)cc2)cc(C(F)(F)F)c1
  99	101	95	/
> COC(=O)C1=C(c2ccccc2)c2ccccc2S(=O)(=O)N1CC(=O)N1CCC(C)CC1
  100	/	/	-23
> Cc1nn(Cc2noc(CNC(=O)c3ccccc3)n2)c(C)c1S(=O)(=O)N1CCCC1
  103	/	/	10
> Fc1ccc(OCc2nnc3sc(COc4ccccc4Cl)nn23)cc1
  105	/	/	15
> Cc1c(CC(=O)N2CCCCC2)c(=O)oc2cc(O)ccc12
  95	105	85	-34
> CCOC(=O)CSc1nc2ccccc2n1C(=O)Oc1ccccc1
  /	93	85	-13
> CCc1nn(CC(=O)NCCc2ccc(OC)c(OC)c2)c(=O)c2cc3occc3n12
  111	97	89	13
> O=C(N/N=C/c1ccco1)C1CN(S(=O)(=O)c2ccccc2)CCN1S(=O)(=O)c1ccccc1 (stereo not given)
  102	21	0	-47
> CCCC(=O)N1c2nc(C(C)C)nn2C2(CCCCC2)[C@@H]2CCCC[C@@H]21
  95	107	90	-1
> CN(C)S(=O)(=O)c1ccc(-c2nc(C#N)c(N3CCCCC3)o2)cc1
  107	/	/	18
> COc1ccc(N2CCN(CC(O)c3ccccc3)CC2)cc1 (stereo not given)
  /	87	91	4
> O=C(Nc1ccccc1)c1cc(S(=O)(=O)Nc2cccnc2)cs1
  98	108	80	-12
> Cc1nc2ccccc2n1C1CCN(C(=O)NC2CCCCC2)CC1
  103	102	68	-5
> COc1ccccc1N1CCN(C(=O)c2nc(-n3nc(C)cc3C)ccc2Cl)CC1
  /	71	86	-28
> COc1cccc(-c2nc(SCC(=O)N3CCCC3)n3[nH]c(=O)cc3n2)c1
  104	104	81	-52
> CCC(=O)Nc1ccc(C(=O)N/N=C/c2ccc(C#N)cc2)cc1
  100	139	104	-8
> Cc1nnc(NC(=O)c2nc(SCc3ccccc3F)ncc2Cl)s1
  100	78	66	-15
> CN(C)c1ccc(C(=NC(=O)C2CCC2)c2ccc(N(C)C)cc2)cc1
  /	94	90	-22
> Cc1nc(-c2ccc(F)cc2)sc1CCNC(=O)c1cccs1
  107	90	83	/
> CC(=O)N1CCc2c(sc3nc(SCc4ccc(Cl)cc4)n(-c4ccccc4)c(=O)c23)C1
  107	/	/	-10
> Cc1ccc2c(c1)nc(NCCCO)n2C
  99	60	89	-5
> Cc1ccc(-c2nc3ccccc3c(=O)[nH]2)cc1
  101	/	/	-11
> CNC(=O)COc1ccc(S(=O)(=O)Nc2ccccc2)cc1
  105	99	107	0
> Cc1cccc(N2CCN(C(=O)c3noc4c3COc3ccc(C)cc3-4)CC2C)c1 (stereo not given)
  101	99	92	/
> O=C(CSc1ccccc1)NCc1ccco1
  /	117	93	4
> CCOC(=O)C1CCN(Cn2nc3cc(C)c4ccccc4n3c2=S)CC1
  /	92	92	-23
> CN1C(=O)N(c2nnc(C(C)(C)C)s2)C(=O)C1c1ccccc1 (stereo not given)
  96	94	85	-13
> O=C(NC1CC1)c1cccc(NC(=O)C2Cc3ccccc3O2)c1 (stereo not given)
  /	96	89	-15
> CN(C)c1cccc(C(=O)OCC(=O)NC2CCCCC2)c1
  /	118	87	-22
> Cc1cccc(NC2CS(=O)(=O)CC2O)c1 (stereo not given)
  96	100	96	/
> Oc1c(C(c2ccccc2)N2CCCC2)sc2nc(-c3ccco3)nn12 (stereo not given)
  96&106	100&112	98&94	-1

# Screens from PubChem.
